Ecoli rRNA inh: inhibits bacterial ribosomal RNA function over humanized ribosomes; E. coli WT GFP vs humanized-ribosome RFP mutants, fluorescence, 24 h; stronger effect = lower value; DMSO median 0, no signal -100; GFP signal change (wild-type ribosome), % (no concentration beside the values); 350,000 compounds, 1.6% hits;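 active = significant combined selectivity score with lowered wild-type GFP, culture density cut under 30%, mutant RFP and density less affected; inactive = any of these conditions unmet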; note: one replicate is shown; some compounds called inactive have numbers as strong as hits
FGF22 binding: FGF22 (human) thermal shift binding; recombinant FGF22 thermal shift, SYPRO orange fluorescence; percent of sucrose octasulfate shift, DMSO zero; 340,000 compounds, 1.5% hits; Q9HCT0; AID 651658; calls only at 9.99 µM;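 active = melting point raised past a set limit in the mean and every replicate; three in four hits are not shown here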
Target sequence (Q9HCT0 whole entry, looked up): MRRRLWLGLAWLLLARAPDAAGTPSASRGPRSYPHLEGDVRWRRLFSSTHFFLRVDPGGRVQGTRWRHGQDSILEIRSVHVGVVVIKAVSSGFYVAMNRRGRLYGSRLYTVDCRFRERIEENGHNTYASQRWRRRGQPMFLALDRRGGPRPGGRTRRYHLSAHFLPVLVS
Ecoli rRNA inh OD600: recorded beside Ecoli rRNA inh, whose call it bears; OD600 change, %; measured here: OD600 growth;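 optical density of the mix in the first replicate; 0 = DMSO median and -100 = no signal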
Ecoli rRNA inh RFP: second read-out of Ecoli rRNA inh, no call of its own (marks repeat the call); RFP signal change, %; measured here: RFP humanized mutant strains;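 first replicate; 0 = DMSO median and -100 = no signal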
* hit, by the source's call; i = inactive. This is a subset; the hit share may differ from the screen's.

SMILES	Ecoli rRNA inh	Ecoli rRNA inh OD600	Ecoli rRNA inh RFP	FGF22 binding
C[C@H]1CN([C@@H](C)CO)S(=O)(=O)c2ccc(C#CC3CC3)cc2O[C@H]1CN(C)S(C)(=O)=O	2.6	0.5	-1.0	i
O=C(c1ccc2c(c1)OCO2)N1CC[C@@H]2[C@@H](CO)Nc3ccc(-c4ccc(F)cc4)cc3[C@@H]21	2.8	-36.0	6.0	i
C[C@@H]1CN([C@@H](C)CO)C(=O)c2cccc(NC(=O)c3ccncc3)c2O[C@@H]1CN(C)C(=O)Nc1ccc(C(F)(F)F)cc1	-7.0	-8.4	0.8	i
Cc1noc(C)c1S(=O)(=O)N(C)C[C@@H]1Oc2ccc(NS(=O)(=O)c3ccc(Cl)cc3)cc2CC(=O)N([C@@H](C)CO)C[C@@H]1C	0.4	4.8	-0.4	i
CC=Cc1ccc2n(c1=O)C[C@@H]1[C@@H](CO)[C@H](C(=O)N3CCCCC3)N(CC3CC3)[C@H]21 (mixture of isomers)	1.4	2.8	3.2	i
Cc1noc(C)c1S(=O)(=O)Nc1ccc2c(c1)C(=O)N([C@H](C)CO)C[C@H](C)[C@@H](CN(C)S(=O)(=O)c1cccs1)O2	-1.6	1.2	0.8	i
CNC(=O)C[C@H]1CC[C@H]2[C@@H](COc3ccc(NC(=O)Nc4ccccc4F)cc3C(=O)N2C)O1	2.9	1.5	0.9	i
C[C@H]1CN([C@@H](C)CO)C(=O)CCCn2nncc2CO[C@H]1CN(C)Cc1cccc(C(=O)O)c1	-0.7	1.2	-0.2	i
C[C@H]1CN([C@@H](C)CO)C(=O)c2cc(NS(=O)(=O)c3ccccc3)ccc2O[C@H]1CN(C)S(=O)(=O)c1cccs1	-0.2	-11.1	3.9	i
C[C@H](CO)N1C[C@H](C)[C@H](CN(C)S(C)(=O)=O)Oc2ncc(-c3ccc(F)cc3)cc2C1=O	4.2	19.9	0.4	i
C[C@@H]1CN([C@H](C)CO)C(=O)c2cc(NC(=O)Nc3ccc4c(c3)OCO4)ccc2O[C@@H](C)CCCCO[C@H]1CN(C)C(=O)c1ccccc1	0.3	-1.4	-0.3	i
CCCNC(=O)[C@H]1[C@H](CO)[C@H]2Cn3c(cccc3=O)[C@@H]1N2C(=O)NCCC	3.3	-4.2	-1.5	i

4 entries from above, with the structure last:
Ecoli rRNA inh	Ecoli rRNA inh OD600	Ecoli rRNA inh RFP	FGF22 binding	compound
2.8	-36.0	6.0	i	O=C(c1ccc2c(c1)OCO2)N1CC[C@@H]2[C@@H](CO)Nc3ccc(-c4ccc(F)cc4)cc3[C@@H]21
-7.0	-8.4	0.8	i	C[C@@H]1CN([C@@H](C)CO)C(=O)c2cccc(NC(=O)c3ccncc3)c2O[C@@H]1CN(C)C(=O)Nc1ccc(C(F)(F)F)cc1
0.4	4.8	-0.4	i	Cc1noc(C)c1S(=O)(=O)N(C)C[C@@H]1Oc2ccc(NS(=O)(=O)c3ccc(Cl)cc3)cc2CC(=O)N([C@@H](C)CO)C[C@@H]1C
1.4	2.8	3.2	i	CC=Cc1ccc2n(c1=O)C[C@@H]1[C@@H](CO)[C@H](C(=O)N3CCCCC3)N(CC3CC3)[C@H]21 (mixture of isomers)

(list continues)
SMILES	Ecoli rRNA inh	Ecoli rRNA inh OD600	Ecoli rRNA inh RFP	FGF22 binding
C[C@@H]1CN([C@@H](C)CO)C(=O)c2cc(/C=C/c3ccccc3)cnc2O[C@@H]1CN(C)C(=O)c1ccccc1	-3.0	-4.0	1.6	i
CN(C)C(=O)C[C@@H]1C=C[C@@H](NC(=O)Nc2cccc(F)c2)[C@@H](CO)O1	0.2	-0.6	0.7	i
C[C@@H]1CN([C@@H](C)CO)C(=O)c2cccc(NC(=O)c3ccc(-c4nccs4)cc3)c2O[C@@H]1CN(C)Cc1ccc(C(F)(F)F)cc1	-4.9	1.9	-0.4	i
CO[C@@H]1CN(C)C(=O)c2ccc(NC(=O)Nc3ccc(C(F)(F)F)cc3)cc2OC[C@@H](C)NC[C@@H]1C	-59.2	-80.6	-9.6	i
C[C@H](CO)N1C[C@H](C)[C@@H](CN(C)C(=O)Nc2ccc(F)cc2)Oc2ccc(NC(=O)CCN3CCOCC3)cc2CC1=O	4.7	-3.3	0.0	i
COc1ccccc1-c1ccc2c(c1)O[C@@H](CN(C)S(=O)(=O)c1ccccc1)[C@H](C)CN([C@H](C)CO)S2(=O)=O	1.2	2.9	-1.8	i
O=C(Nc1ccccc1Cl)N1C[C@@H]2[C@H](c3ccccc31)[C@@H](CO)N2Cc1ccncc1	-10.7	-11.7	-0.5	i
O=C(NCc1ccccc1F)[C@H]1[C@H](CO)[C@H]2Cn3c(cccc3=O)[C@H]2N1CC1CCCC1	-3.2	0.7	2.9	i
C[C@H](CO)N1C[C@H](C)[C@H](CN(C)S(C)(=O)=O)Oc2ncc(C#Cc3ccc(C(F)(F)F)cc3)cc2C1=O	1.9	-7.8	-3.0	i
CCCNC(=O)Nc1ccc2c(c1)C(=O)N(C)[C@@H]1CC[C@@H](CC(=O)NC)O[C@@H]1CO2	-1.7	-6.8	-1.1	i
CNC[C@H]1Oc2ncc(Br)cc2C(=O)N([C@H](C)CO)C[C@@H]1C	1.4	11.0	-3.9	i
CCCNC(=O)N1C[C@H](O)COC[C@H]2O[C@@H](CC(=O)NCCCN3CCOCC3)CC[C@@H]21	6.9	14.2	-1.6	i
C[C@@H]1CN([C@@H](C)CO)C(=O)c2cc(N(C)C)ccc2O[C@@H](C)CCCCO[C@@H]1CN(C)Cc1ccc(C(F)(F)F)cc1	-4.8	-11.4	-5.1	i
COc1ccc(S(=O)(=O)Nc2ccc3c(c2)C(=O)N([C@H](C)CO)C[C@@H](C)[C@@H](CN(C)Cc2ccccc2)OCCCC[C@H](C)O3)cc1	2.6	-31.8	15.3	i
N#C[C@@H]1[C@@H](c2ccc(C#Cc3cccc(F)c3)cc2)[C@@H](CO)N1C(=O)C1CC1	0.6	-0.9	0.1	i
CC(=O)N(C)C[C@H]1Oc2cc(-c3cccnc3)ccc2S(=O)(=O)N([C@H](C)CO)C[C@H]1C	5.2	0.0	-4.6	i
C[C@@H]1CN([C@H](C)CO)C(=O)c2cccc(NC(=O)c3cnccn3)c2O[C@H]1CN(C)C	-1.9	-5.8	-0.4	i
O=C(C[C@@H]1CC[C@H](NC(=O)CC2CC2)[C@H](CO)O1)NCC(F)(F)F	2.2	8.9	2.2	i
C[C@@H]1CCCCO[C@@H](CN(C)C(=O)Nc2cccc3ccccc23)[C@H](C)CN([C@@H](C)CO)C(=O)c2cc(NC(=O)CCCN(C)C)ccc2O1	0.0	-0.7	2.2	i
O=C(C1CCC1)N1C[C@@H]2[C@H](c3ccccc31)[C@@H](CO)N2C(=O)c1ccccc1	-1.4	0.6	-1.5	i
C[C@@H]1CN([C@H](C)CO)C(=O)c2cc(NC(=O)Cc3ccccc3)ccc2O[C@@H]1CN(C)S(=O)(=O)c1ccc(F)cc1	-1.9	-7.1	-1.0	i
C/C=C/c1ccc([C@H]2[C@H](CO)N(c3nc(CC)cs3)[C@H]2CNC(C)C)cc1	-2.4	-46.7	39.8	i
CO[C@@H]1CN(C)C(=O)c2cc(NC(=O)C3CC3)ccc2OC[C@H](C)N(C)C[C@@H]1C	0.7	7.1	-3.4	i
COc1cccc(NC(=O)N(C)C[C@H]2Oc3cc(/C=C/c4ccccc4)ccc3S(=O)(=O)N([C@H](C)CO)C[C@@H]2C)c1	1.5	11.6	0.3	i
CC(C)NC(=O)N(C)C[C@@H]1Oc2cc(-c3cncnc3)ccc2S(=O)(=O)N([C@H](C)CO)C[C@@H]1C	4.1	5.4	-4.3	i
COc1ccc(C#Cc2ccc3c(c2)O[C@H](CN(C)C(=O)NC2CCCCC2)[C@H](C)CN([C@H](C)CO)S3(=O)=O)cc1	2.9	0.7	-2.8	i
Cc1ccc(S(=O)(=O)N(C)C[C@@H]2Oc3ccc(NC(=O)CCCN(C)C)cc3C(=O)N([C@@H](C)CO)C[C@H]2C)cc1	-1.0	-0.2	-1.2	i
COc1ccc(NC(=O)Nc2ccc3c(c2)C(=O)N([C@@H](C)CO)C[C@@H](C)[C@H](CN(C)S(=O)(=O)c2ccc(OC)cc2)OCCCC[C@@H](C)O3)cc1	-0.4	-1.3	-2.5	i
COc1cccc(CN2[C@@H](CO)[C@@H]3c4ccccc4N(C(=O)c4cccnc4)C[C@@H]32)c1	-0.3	7.3	-0.8	i
CO[C@@H]1CN(C)C(=O)c2cc(NC(=O)Cc3ccccc3)ccc2OC[C@@H](C)N(CCc2ccccc2)C[C@H]1C	-2.9	-7.7	12.6	i
COc1ccc(S(=O)(=O)Nc2ccc3c(c2)C(=O)N([C@H](C)CO)C[C@@H](C)[C@H](CN(C)C(=O)Nc2cccc4ccccc24)O3)cc1	-5.7	-13.1	1.9	i
C[C@H]1CCCCO[C@@H](CN(C)S(=O)(=O)c2ccc(F)cc2)[C@@H](C)CN([C@@H](C)CO)C(=O)c2cc(NS(=O)(=O)c3cn(C)cn3)ccc2O1	-5.7	-5.7	2.5	i
CN1C(=O)c2cc(NC(=O)Nc3ccc(Cl)cc3)ccc2OC[C@H]2O[C@@H](CC(=O)NCCN3CCCCC3)CC[C@@H]21	-0.8	-1.8	0.9	i
O=C(Nc1ccc(F)cc1)N[C@@H]1CC[C@H](CCNS(=O)(=O)c2cccc(Cl)c2)O[C@H]1CO	-2.8	-1.5	3.4	i
C/C=C/c1ccc([C@H]2[C@@H](CO)N(C(=O)C3CC3)[C@@H]2CN(CC)C(C)=O)cc1	-1.6	6.5	-1.6	i
Cc1noc(C)c1NC(=O)Nc1ccc2c(c1)C(=O)N([C@H](C)CO)C[C@H](C)[C@@H](CN(C)C(=O)CCCN(C)C)OCCCC[C@@H](C)O2	0.9	3.7	-0.7	i
O=C(c1ccccc1F)N1CC[C@@H]2[C@H]1c1cc(C#Cc3ccccc3F)ccc1N[C@@H]2CO	-6.4	0.6	6.0	i
C[C@@H]1CN([C@H](C)CO)C(=O)c2cc(NS(=O)(=O)c3cn(C)cn3)ccc2O[C@@H]1CN(C)CC1CCCCC1	-0.6	-0.2	-1.0	i
CC(=O)N1[C@@H](CO)[C@@H](c2ccccc2)C12CN(C(=O)CN1CCOCC1)C2	3.0	10.6	0.2	i
CC(C)C#Cc1cnc2c(c1)C(=O)N([C@H](C)CO)C[C@@H](C)[C@H](CN(C)Cc1cncnc1)O2	2.3	1.3	-2.6	i
O=C(NCC[C@H]1CC[C@@H](NC(=O)C2CCCC2)[C@H](CO)O1)c1cnccn1	2.3	10.8	0.0	i
C[C@H](CO)N1C[C@H](C)[C@H](CN(C)S(=O)(=O)c2ccc(F)cc2)Oc2ccc(NC(=O)Nc3ccc(C(F)(F)F)cc3)cc2C1=O	4.7	8.0	0.5	i
C[C@H]1CCCCO[C@@H](CN(C)C(=O)Nc2ccc(F)cc2)[C@@H](C)CN([C@@H](C)CO)C(=O)c2cc(NC(=O)Nc3ccccc3)ccc2O1	1.6	4.9	0.2	i
CCC(=O)N(C)C[C@@H]1Oc2ncc(C#C[C@H](C)O)cc2C(=O)N([C@H](C)CO)C[C@H]1C	5.6	7.4	-4.4	i
Cc1cccc(CN(C)C[C@@H]2OCc3cn(nn3)CCCC(=O)N([C@H](C)CO)C[C@H]2C)c1	-1.1	1.6	0.1	i
CCCNC(=O)N1CC2(CCN(Cc3ccccn3)CC2)c2c(n(C)c3cc(OC)ccc23)[C@@H]1CO	-0.1	-4.0	1.8	i
CCC(=O)Nc1ccc2c(c1)C(=O)N(C)[C@H]1CC[C@H](CC(=O)N3CCCCC3)O[C@@H]1CO2	2.8	6.4	-2.7	i
COC(=O)[C@H](CC(C)C)NS(=O)(=O)c1c(F)cccc1F	1.6	-0.3	2.6	i
C[C@@H]1CN([C@H](C)CO)C(=O)Cc2cc(NC(=O)CCC(F)(F)F)ccc2O[C@@H]1CN(C)Cc1ccc(C(F)(F)F)cc1	5.2	5.2	-0.8	i
C[C@@H]1CN([C@@H](C)CO)C(=O)c2cc(NC(=O)Nc3ccccc3)ccc2O[C@@H](C)CCCCO[C@@H]1CN(C)Cc1ccc2c(c1)OCO2	3.7	2.2	7.7	i
CO[C@@H]1CN(C)C(=O)c2ccc(NC(=O)C3CCOCC3)cc2OC[C@H](C)N(Cc2nccs2)C[C@@H]1C	0.6	-7.1	2.2	i
CCC(=O)N1[C@H](CO)[C@@H](c2ccccc2)C12CN(CC1CCOCC1)C2	4.6	2.7	-5.1	i
CC(=O)Nc1ccc2c(c1)C(=O)N(C)[C@@H]1CC[C@H](CC(=O)Nc3cn(C)nc3C)O[C@@H]1CO2	3.5	5.1	-3.5	i
C[C@@H]1CN([C@H](C)CO)C(=O)c2cccc(NC(=O)Nc3cccc4ccccc34)c2O[C@H]1CN(C)S(=O)(=O)c1cccs1	-2.5	-3.1	-0.1	i
CO[C@H]1CN(C)C(=O)c2ccc(NC(=O)c3cc(C)on3)cc2OC[C@@H](C)NC[C@H]1C	-0.5	-3.8	-2.4	i
COc1ccc(NC(=O)N(C)C[C@H]2Oc3c(NC(=O)c4ccc(-c5nccs5)cc4)cccc3C(=O)N([C@@H](C)CO)C[C@@H]2C)cc1	-2.2	8.8	-1.9	i
CCCN1C[C@H](C)[C@H](OC)CN(C)C(=O)c2ccc(NS(=O)(=O)c3ccccc3)cc2OC[C@H]1C	2.9	-0.8	-1.2	i
CO[C@H]1CN(C)C(=O)c2ccc(NC(=O)c3cccc(F)c3)cc2OC[C@H](C)NC[C@@H]1C	-0.6	-2.3	-1.5	i

Screening results (PubChem)
